Sa helicase inh = blocks Staphylococcus aureus DNA helicase | AID 485395 | actives 0.05% (n = 120,000) | inhibition, %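 (tested at about 80 µM)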 | purified S. aureus helicase, fluorescence unwinding assay; about half of the hits fall short of the stated cut;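 active = both duplicates at 50% or more, or one of them with a favoured structure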;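 note: 0% = mean of negative control wells and 100% = mean of positive control wells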
MgrA-DNA mod = alters Staphylococcus aureus MgrA binding to DNA; fluorescence polarization; inhibition, %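 (about 10 µg/mL by stock and volumes)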; actives 0.13% (n = 84,000);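 active = above 50% in either of two replicates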;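 note: 0% = protein plus DNA without compound and 100% = DNA alone without protein; higher means less MgrA bound to DNA so lower polarization; one replicate is shown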
* = called active by the depositor; nt = not tested or not shown; & = joins results of further samples.

Sa helicase inh | MgrA-DNA mod | smiles
-1.0 | nt | O=C(COC(=O)/C=C/c1ccc(S(=O)(=O)N2CCCCCC2)cc1)Nc1ccc2[nH]c(=O)[nH]c2c1
4.0 | nt | Cc1c(C(=O)Nc2ccccc2)cnn1-c1ccccc1
-40.0 | nt | N#CC1=C2Sc3ccccc3N2CC1=O
7.0 | 2.0 | CCc1ccc2nc(N3CCC(C(=O)NCC4COc5ccccc5O4)CC3)sc2c1 (configuration not stated)
-1.0 | nt | CN(CCO)C(C(=O)Nc1ccc(F)cc1)c1ccccc1 (configuration not stated)
nt | -4.5 | Cc1nc2ccc3nc(NC(=O)c4ccc(S(=O)(=O)N5CCCCC5)cc4)sc3c2s1
0.0 | 0.8 | CN1C(=O)/C(=C/c2cn(Cc3ccccc3)c3ccccc23)c2ccccc21
2.0 | nt | Cc1ccc(S(=O)(=O)CCN2CCC(O)(c3ccccc3)CC2)cc1
9.0 | nt | Cc1ccsc1-c1nc(CSCC(=O)N2CCN(c3ccccc3)CC2)c(C)o1
nt | -1.9 | CC(C)(C)c1ccc(OCc2ncc(S(=O)(=O)c3ccccc3)c(N)n2)cc1
-3.0 | nt | CC1CCCC(NS(=O)(=O)c2cccc(C(=O)O)c2)C1C (configuration not stated)
17.0 | -4.3 | CCN(Cc1ccccc1)C(=O)C(C)Oc1ccccc1 (configuration not stated)
7.0 | -2.3 | O=C(Cc1ccccc1)Nc1ccccc1C(=O)O
6.0 | -0.4 | c1ccc(Nc2ccc(N3CCCC3)nn2)cc1
-32.0 | 21.4 | O=C1CSC(=S)N1/N=C/c1cc(Br)cc(Br)c1O
nt | -3.6 | Cc1cc(C2(O)CSc3nc4cc(C(F)(F)F)ccc4n32)ccc1Cl (configuration not stated)
10.0 | nt | CC1SCC(=O)N(CC(=O)NCc2ccccc2)C1=O (configuration not stated)
nt | -2.1 | Cc1ccc(C(=O)CCc2ccc(N)cc2)cc1
-13.0 | nt | NNc1c(F)c(F)nc(F)c1F
nt | 0.5 | CS(=O)(=O)/C(C#N)=C/Nc1cnccn1
3.0 | nt | c1nc(NCCCN2CCCCC2)c2[nH]cnc2n1
-7.0 | nt | CN1N=C(C(=O)Nc2nc3ccc(F)cc3s2)CCC1=O
15.0 | nt | COC(=O)C1CSCN1S(C)(=O)=O (configuration not stated)
5.0 | -0.1 | CCNC(=O)N1c2ccc(CC)cc2C(C)=CC1(C)C
11.0 | nt | Cc1cc(C)c(NC(=O)COC(=O)C(O)c2ccccc2)c(C)c1 (configuration not stated)
20.0 | nt | O=C(O)C1CCCCC1C(=O)N(Cc1ccccc1)Cc1ccccc1 (configuration not stated)
nt | -3.3 | Cc1nn(C)c(C)c1Sc1nccc(-c2cccnc2)n1
2.0 | -3.1 | CC(=O)NC1(c2ccccc2)CCN(C)C(c2ccccc2)C1C (configuration not stated)
20.0 | nt | COc1ccc(-c2cc(C(F)(F)F)n3nc(C(=O)N4CCCCC4C)cc3n2)cc1 (configuration not stated)
-13.0 | 2.1 | Cn1c(S(=O)(=O)CC(N)=O)nc2ccccc21
-25.0 | nt | COc1ccc(-n2cc(C(=O)Nc3ccc(C(=O)N4CCCCC4)cc3)nn2)cc1
8.0 | -0.3 | CCC(Oc1cccc(Cl)c1)C(=O)NN1CCOCC1 (configuration not stated)
nt | -3.2 | COc1cccc(/C=C2\SC(=S)N(CCC(=O)N3c4ccccc4Sc4ccccc43)C2=O)c1
8.0 | 0.1 | COC(=O)c1ccc2c(=O)nc3n(c2c1)Cc1ccccc1-3
-7.0 | 1.8 | CCc1n[nH]c(=O)n1Nc1ccccc1
-15.0 | nt | CCOC(=O)c1cc2c(=O)n3ccccc3nc2n(CC2CCCO2)c1=NC(C)=O (configuration not stated)
4.0 | -4.5 | Cn1nnc(-c2ccc(C(=O)O)cc2)n1
-6.0 | nt | O=C(C1c2ccccc2Oc2ccccc21)N(Cc1ccco1)C1CCS(=O)(=O)C1 (configuration not stated)
-6.0 | nt | CC1C(c2ccc(Cl)cc2)=[N+]([O-])C(C)(C)N1O (configuration not stated)
-10.0 | -0.8 | COc1nccc(N)n1
31.0 | nt | c1ccc2c(N3CCCCC3)nc(N3CCCC3)nc2c1
1.0 | 7.0 | c1ccc(-c2csc3nc4ccccc4n23)cc1
-10.0 | nt | CC1=NC2N(C(=S)NC(=O)c3ccco3)N=C(NC(=O)c3ccco3)N2C(OC(=O)c2ccco2)=C1 (configuration not stated)
21.0 | nt | O=S(=O)(NCCc1nc(-c2ccc(Cl)cc2)no1)c1ccc(F)cc1
-5.0 | nt | CCN1CCCC1CNC(=O)c1ccc2c(c1)N(Cc1cccc(Cl)c1)C(=O)c1ccccc1S2=O (configuration not stated)
nt | -2.4 | O=C1CSC(=S)N1c1ccc(Oc2ccc(Cl)cc2)cc1
9.0&-3.0 | 1.4 | Cc1cc(=O)[nH]c(NCCO)n1
12.0 | -6.3 | COc1ccc(CC(=O)n2nc(C)cc2C)cc1
nt | -2.6 | CCOC(=O)c1ccc(N=Cc2cc(Cl)cc(Cl)c2O)cc1
17.0 | 1.0 | Cc1cc(C)cc(NC(=O)Nc2ccccc2)c1

(further entries)
Sa helicase inh | MgrA-DNA mod | smiles
12.0 | -1.3 | CCC(NS(=O)(=O)c1cc(C)ccc1OC)C12CC3CC(CC(C3)C1)C2 (configuration not stated)
nt | 4.7 | Cc1cccnc1N1C(=O)C2C3C=CC(C3)C2C1=O (configuration not stated)
-4.0 | -2.1 | CSc1sc(C)cc1/C=N/O
-7.0 | -1.2 | CN(c1c[nH]c(=O)[nH]c1=O)C1CCCCC1
nt | 0.9 | COc1ccc2cc(-c3ccon3)ccc2c1
-7.0 | -0.7 | Nc1ccc2nc(CCCO)[nH]c2c1
nt | -1.3 | O=C(OCCCN1C(=O)c2cccc3c(N4CCOCC4)ccc(c23)C1=O)c1ccc([N+](=O)[O-])cc1[N+](=O)[O-]
10.0 | -0.9 | CCn1nc(N)c2c(O)[nH]c(=O)cc21
nt | 0.1 | CN(C)c1nc(N)nc2ncn(C)c12
13.0 | nt | CN(C)S(=O)(=O)c1cccc(C(=O)NC2=NCCS2)c1
-10.0 | -2.5 | COc1ccc(Cl)cc1-c1nnc(SCC(=O)NC2CC3CCC2C3)o1 (configuration not stated)
7.0 | -2.6 | COc1ccc(OCC(=O)N2CCC(Cc3ccccc3)CC2)cc1
nt | -1.1 | COC(=O)C1=C(N)Oc2ccccc2C1C(C#N)C(=O)OC (configuration not stated)
-4.0 | nt | COc1ccc(-c2nnc(SCC(=O)N3CC(C)OC(C)C3)n2C2CCCCC2)cc1OC (configuration not stated)
-24.0 | 2.8 | Cc1cc(C)c(C(=O)NCc2ccco2)c(C)c1C(=O)NCc1ccco1
4.0 | -0.3 | CCOc1ccc(-c2csc(NC(=O)Cc3ccccc3)n2)cc1
-2.0 | nt | COc1ccc(C2CC(c3ccccc3)=NN2C(=O)COc2ccc(-n3cnnn3)cc2)cc1 (configuration not stated)
12.0 | nt | Cn1c(=O)cc(OCC(=O)NC2CCCCC2)c2ccccc21
-30.0 | 6.2 | CCn1c(CCl)nc2cc(C(=O)O)ccc21
nt | -4.5 | COC(=O)c1ccccc1NC(=S)N(C)N
nt | 1.5 | O=C1NC(=Nc2ccc(Cl)cc2)SC1Cc1ccccc1[N+](=O)[O-] (configuration not stated)
-2.0 | nt | COc1ccc(NCC(=O)N/N=C/C2CCCCC2)cc1
-5.0 | nt | COc1ccccc1N(C)S(=O)(=O)c1ccc(C(=O)NC(C)(C)C)cc1
nt | 5.6 | O=C1NC(=Nc2ccccc2Cl)S/C1=C/c1cccc([N+](=O)[O-])c1
-4.0 | -1.6 | Cc1cc(NC(=O)C2CC(=O)N(C(C)(C)C)C2)no1 (configuration not stated)
-6.0 | nt | Cc1c(N=Nc2ccc(O)cc2)c(=O)n(-c2ccccc2)n1C
-81.0 | nt | C=CCc1cccc(C=NC2=C(C#N)CCC2)c1O
17.0 | 11.5 | Cc1cc(/C=C2\C(=O)NC(=S)N(C)C2=O)c(C)n1-c1ccc(C(=O)O)cc1
6.0 | 0.5 | CCc1ccccc1NC(=O)CC1CS(=O)(=O)CC1CC(=O)Nc1ccccc1CC (configuration not stated)
5.0 | -2.6 | CCOC(=O)c1c(NC(=O)CN2CCCCC2)sc2c1CCCC2
-2.0 | 2.7 | CC(C)OC(=O)c1cc2c(ccn2C)n1Cc1ccc(Cl)cc1Cl
3.0 | -3.9 | COC(=O)c1cn(CCC#N)nc1-c1cccs1
4.0 | -0.1 | Cc1nnc(N(Cc2ccco2)C(=O)c2cccc(C#N)c2)s1
9.0 | -3.5 | CC(=O)Nc1ccc(N(C)C(C)=O)cc1
0.0 | -2.3 | CC1=C(C(=O)Nc2ccccc2)C(c2ccccc2)n2ncc(C(=O)Nc3ccccc3)c2N1 (configuration not stated)
-2.0 | 3.2 | COc1ccc(N=Cc2c(O)n(C3CCCCC3)c(=O)n(C3CCCCC3)c2=O)cc1
5.0 | -2.4 | COC(=O)c1oc2nc(C)cc(C)c2c1N
8.0 | -0.1 | FC(F)(F)Oc1ccc(N=Cc2ccsc2)cc1
-19.0 | nt | NNC(=S)/N=C/c1ccco1
18.0 | 1.8 | O=C(Cc1coc2ccc3ccccc3c12)N1CCN(c2ccccc2)CC1
nt | -1.3 | COc1cc(Br)c(OC)cc1C
-4.0 | 1.9 | C=CCc1cc2c(C)cc(=O)oc2c(I)c1O
-14.0 | nt | CC(c1ccco1)N(C(=O)C12CC3CC(CC(C3)C1)C2)c1ccccn1 (configuration not stated)
nt | -14.6 | NC1=C(c2ccccc2)C(=O)c2ccccc21
-8.0 | nt | CC1(C)CC(=O)C(N=Nc2cccc(F)c2C#N)=C(O)C1
7.0 | 0.5 | Cc1cc(C)nc(Nc2ccc(O)cc2)n1
nt | -3.4 | Cc1ccc(NC(=O)Oc2ccccc2N2CCOCC2)cc1Cl
7.0 | 1.8 | CC1=C(C(=O)N2CCCCC2)C(c2ccc(Br)cc2)n2c(nc3ccccc32)N1 (configuration not stated)
nt | 0.2 | CCOC(=O)c1c(-c2cccc(N)c2)cn2ccccc12
12.0 | 2.5 | Cc1ccc(NC(=O)c2snc3ccc(Cl)cc23)cc1C

(continued)
Sa helicase inh | MgrA-DNA mod | smiles
8.0 | nt | O=C(NCCCN1CCN(c2ccccc2F)CC1)c1ccc(CS(=O)(=O)c2ccc(Br)cc2)o1
nt | -4.4 | COc1cc(CC(=O)O)c([N+](=O)[O-])cc1OC
-10.0 | nt | CC(=O)N(Cc1ccccc1)c1ccc(C(=O)O)cc1
22.0 | nt | Cc1ccc(S(=O)(=O)N(Cc2ccccc2)Cc2ccco2)cc1
-12.0 | nt | CCn1c(CN2CCCCCC2=O)nnc1SC(C)c1nc2ccccc2c(=O)[nH]1 (configuration not stated)
4.0 | 0.0 | CCCNc1nc2ccccc2s1
-27.0 | nt | O=c1c(Br)cccc(Br)c1O
16.0 | 0.3 | Cc1cc(N2CCCC2=O)c(N)cc1N
16.0 | nt | COc1cc(OC)c(NC(=O)Cn2ncc3c2-c2cc(C)ccc2OC3)cc1Cl
nt | 1.1 | COc1ccc(-c2c(C)nc3ccc(Cl)cc3c2-c2ccccc2)cc1OC
nt | -0.8 | O=c1oc(-c2cccnc2Oc2ccccc2)nc2cccc(F)c12
7.0 | nt | COc1cccc(-c2nc(CC(=O)OCC(=O)NC3CCS(=O)(=O)C3)cs2)c1 (configuration not stated)
-1.0 | nt | C=CCNc1nc(C(=O)OCC2COc3ccccc3O2)cs1 (configuration not stated)
4.0 | nt | CCOC(=O)c1cc(-c2ccc(OC)c(S(=O)(=O)N(C)Cc3ccccc3)c2)on1
-11.0 | nt | Cc1cc(NCCCN2CCOCC2)n2c(nc3ccccc32)c1C#N
4.0 | nt | O=C(NCC1COc2ccccc2O1)C(NS(=O)(=O)c1cccc2nsnc12)c1ccccc1 (configuration not stated)
7.0 | -2.6 | O=C(c1cccc(-c2nnc(-c3ccccc3)o2)c1)N1CCCCC1
0.0 | 2.1 | CC1C(=O)ON(c2ccccc2)C(=O)N1C (configuration not stated)
9.0 | 2.9 | CN(C)CCNC(=O)Nc1ccc(F)cc1F
nt | -0.4 | FC(F)(F)c1ccc(-c2nnc(-c3ccc(Cl)cc3)o2)nc1
nt | 3.9 | CCOC(=O)N/N=C/c1ccc(OC)cc1
nt | 1.3 | COc1ccccc1C(=O)OCCCN(C1=NS(=O)(=O)c2ccccc21)c1ccccc1
nt | -1.1 | CC1=Nn2c(nnc2-c2ccccc2)SC1
-11.0 | nt | COc1ccccc1NS(=O)(=O)c1ccc2oc(SCC(=O)c3ccc4c(c3)NC(=O)CO4)nc2c1

Screens deposited in PubChem BioAssay by ICCB-Longwood Screening Facility, Harvard Medical School.

The list is partial, so the mix of outcomes need not match the whole.
